hNpr1 antagonist: antagonists of human natriuretic peptide receptor Npr1. Potency, µM (highest dose often 46.3 µM), for the others: at the top dose activity change, negative = inhibition, hits mostly inhibitors. P16066. HEK293 hNpr1 GloSensor cGMP, ANP-stimulated luminescence. 76,000 tested, 1.6% active. AID 1347048; active = well fitted inhibition curve with a large enough effect; inconclusive = small, poorly fitted or top-dose-only effect; inactive = no such curve, though single readings can be large or run the other way;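 note: nearly all actives have a fitted effect of over 60% in size; nearly all hits also lower the signal before the agonist is added; a reference antagonist and vehicle were the controls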
Target sequence (P16066 whole entry, looked up): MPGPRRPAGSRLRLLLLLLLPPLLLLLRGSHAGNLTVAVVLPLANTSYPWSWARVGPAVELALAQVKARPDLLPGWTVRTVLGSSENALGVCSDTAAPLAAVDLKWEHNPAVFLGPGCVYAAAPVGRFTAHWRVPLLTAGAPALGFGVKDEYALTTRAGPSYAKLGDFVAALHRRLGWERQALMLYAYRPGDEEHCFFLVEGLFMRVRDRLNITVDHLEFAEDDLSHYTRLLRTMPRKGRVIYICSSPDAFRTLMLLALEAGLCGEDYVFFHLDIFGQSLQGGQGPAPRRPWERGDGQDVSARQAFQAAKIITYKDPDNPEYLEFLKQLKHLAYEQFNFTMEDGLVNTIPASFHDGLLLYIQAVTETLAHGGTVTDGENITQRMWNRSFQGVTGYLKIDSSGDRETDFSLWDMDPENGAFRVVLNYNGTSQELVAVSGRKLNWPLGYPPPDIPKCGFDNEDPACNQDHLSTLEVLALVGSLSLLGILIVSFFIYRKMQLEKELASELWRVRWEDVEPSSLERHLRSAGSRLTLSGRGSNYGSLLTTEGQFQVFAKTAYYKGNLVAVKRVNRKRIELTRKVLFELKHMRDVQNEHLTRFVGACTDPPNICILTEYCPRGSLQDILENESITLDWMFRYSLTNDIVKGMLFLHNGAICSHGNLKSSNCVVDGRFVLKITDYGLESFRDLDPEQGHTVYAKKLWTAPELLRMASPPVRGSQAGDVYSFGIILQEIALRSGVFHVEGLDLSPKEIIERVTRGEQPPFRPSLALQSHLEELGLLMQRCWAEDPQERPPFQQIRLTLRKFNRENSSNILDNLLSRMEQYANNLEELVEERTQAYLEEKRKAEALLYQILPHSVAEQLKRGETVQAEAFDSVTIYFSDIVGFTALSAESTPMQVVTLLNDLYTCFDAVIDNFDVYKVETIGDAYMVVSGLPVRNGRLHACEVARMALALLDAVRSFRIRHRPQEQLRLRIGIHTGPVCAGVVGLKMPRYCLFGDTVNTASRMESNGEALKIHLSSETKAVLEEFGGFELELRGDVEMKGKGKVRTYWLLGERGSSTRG
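HEK293 cells stably expressing human Npr1 and cGMP GloSensor pGS-40F, loaded 2 h with 2% GloSensor reagent, given compound 30 min at room temperature. Luminescence read before and 20 min after 0.1 nM hNppA.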
An asterisk follows results filed as active; u = inconclusive; [ ] = remark or other dose. % is set by controls: 0 for no effect and ±100 for the full control effect; potency is the fitted concentration of half-maximal effect. The list is partial; rates above refer to the full screens.

No.	structure	hNpr1 antagonist
1	COc1ccc(C(=O)N[C@@H]2CCC[C@@H]2C(=O)NCc2ccc3c(c2)OCO3)cn1	6%
2	COc1ccc(NC(=O)[C@@H]2C[C@@H](c3cccc(C(F)(F)F)c3)N(C)C2)cc1	-29%[70.6 µM]
3	CCCCn1c(CNC(=O)OC(C)(C)C)nc2cccnc21	-5%[70.6 µM]
4	CC(C)c1ccc(CC(=O)N2CCCc3ncc(C(=O)Nc4cccc(C(F)(F)F)c4)cc32)cc1	-27%
5	CCOCC(=O)N1CCCn2ccnc2C1C(C)C (stereo unspecified)	0%
6	CCNC(=O)C1(CCO)CCN(Cc2ccccc2)C1 (stereo unspecified)	4%
7	C=CCNC(=O)N[C@H]1CCN2C(=O)c3cc(Br)ccc3NC(=O)[C@@H]2C1	4%[70.6 µM]
8	CN(Cc1ccccc1C(F)(F)F)Cc1cccc2ccccc12	0%[70.6 µM]

A different layout for some results above:
1	COc1ccc(C(=O)N[C@@H]2CCC[C@@H]2C(=O)NCc2ccc3c(c2)OCO3)cn1
  hNpr1 antagonist = 6%

2	COc1ccc(NC(=O)[C@@H]2C[C@@H](c3cccc(C(F)(F)F)c3)N(C)C2)cc1
  hNpr1 antagonist = -29%[70.6 µM]

(list continues)
No.	structure	hNpr1 antagonist
9	CCOCCNC(=O)c1c(C)noc1-c1ccc(OC)cc1	2%
10	CN1CCN(CCCNC(=O)CN2CC3CC(C2)[C@H]2CCCC(=O)N2C3)CC1 (stereo partly specified)	-11%
11	COCc1cc(CNC(=O)C2(Oc3ccc(Cl)cc3)CCNCC2)[nH]n1	2%
12	Cc1cc(C(=O)N2C[C@@H](COc3ccccc3)[C@H](C(N)=O)C2)no1	10%
13	COc1ccccc1C(=O)NC[C@@H]1CC[C@H]2C[C@@H]1C2(C)C	0%[70.6 µM]
14	O=C([C@@H]1C[C@H](Oc2cccnc2)CN1S(=O)(=O)Cc1ccccc1F)N1CCOCC1	2%
15	COc1ccc(-c2nc(-c3ccccc3)nc3c2CN([S+](=O)([O-])c2cccs2)CC3)cc1	4%
16	O=C(c1c2c(nc3ccccc13)CCCC2)N1CCCC(c2nc(C3CCOCC3)no2)C1 (stereo unspecified)	-9%

Of the compounds above, these have fluorine.
No.	structure	hNpr1 antagonist
2	COc1ccc(NC(=O)[C@@H]2C[C@@H](c3cccc(C(F)(F)F)c3)N(C)C2)cc1	-29%[70.6 µM]
4	CC(C)c1ccc(CC(=O)N2CCCc3ncc(C(=O)Nc4cccc(C(F)(F)F)c4)cc32)cc1	-27%
8	CN(Cc1ccccc1C(F)(F)F)Cc1cccc2ccccc12	0%[70.6 µM]
14	O=C([C@@H]1C[C@H](Oc2cccnc2)CN1S(=O)(=O)Cc1ccccc1F)N1CCOCC1	2%

Further results:
No.	structure	hNpr1 antagonist
17	CCc1noc(-c2cn(C3CCN(C(=O)c4ccc(OC)cc4OC)CC3)nn2)n1	6%
18	CN1C(=O)c2cccn2CC1CNC(=O)COc1ccccc1 (stereo unspecified)	0%
19	O=C(NCc1ccc2c(c1)OCO2)c1nc(-c2ccc(Cl)cc2Cl)c2ccccn12	4%
20	O=C(c1cccnn1)N1CCC2(CCCN(C3CCOCC3)C2=O)C1 (stereo unspecified)	0%
21	NC(=O)CNC(=O)C1=C[C@@H](Oc2cc(F)ccc2Br)[C@H](O)[C@H](O)C1	4%[70.6 µM]
22	Cc1cccc(C(=O)N2CCCN(Cc3ccncc3)C(c3ccccc3)CC(=O)NCC2)c1 (stereo unspecified)	2%
23	O=C(Nc1ccccc1F)N1CC(Oc2cccc(-c3nc(-c4ccccc4)no3)c2)C1	-10%
24	Cc1ccc(S(=O)(=O)N2CCC(Oc3ncccc3C(=O)N3CCOCC3)C2)cc1F (stereo unspecified)	-10%

The listing continues.
No.	structure	hNpr1 antagonist
25	Cc1ncccc1C(=O)N1CCC(Oc2cnc3c(ccn3-c3cncnc3)c2)CC1	1%[70.6 µM]
26	COc1ccc(OCC2(C)COc3ccc(C(=O)NCCN4CCOCC4)cc3N2)cc1 (stereo unspecified)	-5%[70.6 µM]
27	CC(C)CN1CCN(C(=O)CCC[C@@H]2[C@H]3CCCN4CCC[C@@H](CN2C(=O)c2cccnc2)[C@@H]34)CC1	-1%
28	COCCNC(=O)c1ccc2c(c1)N(C)C(CC(=O)NCC(C)C)CO2 (stereo unspecified)	-3%
29	COCCN1C(=O)CS(=O)(=O)C12CCN(C(=O)c1ccc(F)c(F)c1)CC2	1%
30	CN1CCC(N2CC[C@@H]3[C@H]2C(=O)NC[C@H](CCC(=O)N2CCOCC2)N3C)CC1	2%[70.6 µM]
31	CCO[C@H]1CN(C(=O)CCc2nc3c(C)c(C)ccc3[nH]2)C[C@@H]1O	8%
32	CN(C)c1cc(N2C[C@@H](CN3CCOCC3)C[C@H](CO)C2)ncn1	-9%

More records:
No.	structure	hNpr1 antagonist
33	COc1ccc(-n2cnc3cccnc32)cc1OC	4%[70.6 µM]
34	COc1ccccc1-c1nc2nccc(-c3cccnc3)n2n1	6%
35	O=C(O)COCC(=O)N[C@H]1CCN2C(=O)c3cc(-c4ccc(F)cc4F)ccc3NC(=O)[C@H]12	1%
36	CCOc1ccc(NC(=O)Cn2nc3n(c2=O)CCN(Cc2ccccc2C)C3=O)cc1	1%
37	COc1ccc(CN2CCC3(CC2)CC(O)CCO3)c(OC)c1 (stereo unspecified)	-1%
38	COc1ccc(-c2nn(-c3ccccc3C)cc2CN(C)CCN2CCOCC2)cc1F	0%
39	Cc1c(Cl)cccc1NC(=O)N1CCCC1c1nncn1-c1ccccc1 (stereo unspecified)	3%
40	COc1cc(NC(=O)CC2C(=O)NCCN2C(C)C)ccc1NC(=O)C(C)(C)C (stereo unspecified)	8%

Further records follow.
No.	structure	hNpr1 antagonist
41	O=C([C@@H]1C[C@H](Oc2ccccc2)CN1C(=O)c1n[nH]c2ccccc12)N1CCOCC1	6%
42	CC(=O)c1cccc(NC(=O)Cn2c(Nc3cc(C)cc(C)c3)nc(C)cc2=O)c1	-24%
43	CC1=C[C@@H](CNC(=O)COc2ccccc2)[C@H](C(C)C)C[C@H]1CC(=O)Nc1ccccn1	0%
44	COCCCNC(=O)N1C[C@@H]2CCCN3CCC[C@@H]([C@H]23)[C@H]1CCCC(=O)Nc1ccccc1	3%
45	NC1CCc2nn(CC(=O)NCCc3nc4ccccc4[nH]3)c(=O)n2CC1 (stereo unspecified)	1%
46	C=CCNC(=O)N1CCC(O)(c2csc(CN3CCc4ccccc4C3)n2)CC1	-3%[70.6 µM]
47	COc1ccc(CCC(=O)N[C@@H](Cc2ccccc2)C(=O)N2CCCOCCNC(=O)CC2)cc1	3%
48	COc1cc(NC(=O)c2cc3c(N4CCSCC4)nc(C)cn3n2)c(OC)cc1Cl	4%

3 entries from above, arranged by heavy-atom count, lowest first.
No.	structure	hNpr1 antagonist
45	NC1CCc2nn(CC(=O)NCCc3nc4ccccc4[nH]3)c(=O)n2CC1 (stereo unspecified)	1%
46	C=CCNC(=O)N1CCC(O)(c2csc(CN3CCc4ccccc4C3)n2)CC1	-3%[70.6 µM]
48	COc1cc(NC(=O)c2cc3c(N4CCSCC4)nc(C)cn3n2)c(OC)cc1Cl	4%

Continued:
No.	structure	hNpr1 antagonist
49	O=C(CCN1CCCCO1)N1CCCC(CCc2ccc(F)c(F)c2)C1 (stereo unspecified)	9%
50	Cc1ccc(CN2CCN(C(=O)C3CCCN(C(=O)c4ccccc4)CCC(=O)NCC3)CC2)cc1 (stereo unspecified)	3%
51	COc1ccc(-c2cc3c(nc2OC)nc(CC2CC2)n3C)cc1OC	-10%[70.6 µM]
52	COCC(=O)N1CCN(S(=O)(=O)c2ccccc2)C[C@@H]1C(=O)N[C@H](Cc1cccnc1)C(=O)OC	13%
53	CCOc1ccc(CNC(=O)c2c(C)sc3ccn(C)c(=O)c23)cc1	-1%
54	Cc1cc(-c2nc3ccncc3[nH]2)c(C)[nH]1	1%[70.6 µM]
55	CC1(C)C[C@H](NC(=O)c2ccccc2)[C@@]2(CCC(=O)NCc3ccco3)CC[C@](C)(O)C[C@@H]12	5%
56	CCn1cc(CN(C)C2CCc3nn(CC4CC4)c(=O)n3CC2)c(C)n1 (stereo unspecified)	1%

(continued)
No.	structure	hNpr1 antagonist
57	COCCNC(=O)C(NC(=O)c1ccccc1)C1CCN(C(=O)c2ccccc2OC)CC1 (stereo unspecified)	-10%
58	CC(=O)c1c(C)nn(CC(=O)N2C[C@H](O)[C@@H](N3CCC(O)CC3)C2)c1C	2%
59	Cc1ccc(Cl)cc1NC(=O)N1CCC(Oc2ncccc2C(=O)N2CCOCC2)C1 (stereo unspecified)	-3%
60	CCC(C)NC(=O)C1COC2(CCC(C)CC2)N1C(=O)c1ccccc1F (stereo unspecified)	0%
61	Nc1ncccc1CN1CCC(CO)(CN2CCCC2)CC1	3%
62	CC(C)CC(=O)N1CCC2(CC1)CC(N(Cc1ccc(F)cc1)C1CC1)CCO2 (stereo unspecified)	4%
63	CN1C(=O)c2cccn2CC1CNC(=O)c1n[nH]c(=O)c2ccccc12 (stereo unspecified)	-7%
64	CC(C)c1noc(-c2cccn3c(CNC(=O)COc4ccc(F)cc4)nnc23)n1	2%

The list goes on.
No.	structure	hNpr1 antagonist
65	CCOc1ccccc1NC(=O)N1CCCCCCN(C)C(=O)CC1	3%
66	CCOC(=O)C1=C(C)N=C2SC=C(CC(=O)N3CCOCC3)N2C1c1ccccc1OC (stereo unspecified)	-27%
67	CCCNC(=O)N(C1CCOCC1)C1CCN(C(=O)c2ccc(C)c(F)c2)CC1	2%
68	Cc1cc(C(=O)N2CCOC[C@H](Oc3ccc(S(C)(=O)=O)cc3)C2)c(C(F)(F)F)o1	4%
69	COc1ccc(N2CC3(C2)CN(c2ccccc2)C(=O)O3)cc1OC	-5%[70.6 µM]
70	COC1CN(C2CCN(C(=O)CCc3c[nH]c4ccccc34)CC2)C12CCOCC2 (stereo unspecified)	-1%
71	CCn1cc(S(=O)(=O)N2CCC(c3noc(-c4ccccc4)n3)C2)cn1 (stereo unspecified)	-9%
72	N#Cc1cccc(N2CCC3(CC(=O)NC3=O)C2)n1 (stereo unspecified)	3%

The list goes on.
No.	structure	hNpr1 antagonist
73	O=C(CC[C@H]1NC(=O)c2ccccc2NC1=O)Nc1nc(-c2ccccn2)cs1	-15%
74	O=C(Cc1ccccc1F)NCCC1CCN(C(=O)Nc2cc(F)cc(F)c2)CC1	-23%
75	COC[C@@H]1CN(C(=O)c2ccc(F)c(Cl)c2)C[C@H]1c1ccncc1	1%
76	N#Cc1ccc(C(=O)N2CCC(C(=O)N3CCCCCCNC(=O)CC3)CC2)cc1	-11%
77	COc1ccc(C)cc1Nc1nc(-c2ccc(OC)c(OC)c2)no1	-4%
78	CCc1nc(-c2c3n(c(=O)n(Cc4ccc(C)cc4C)c2=O)CCCC3)no1	1%
79	Cc1ccc(CC(=O)N2CCCC(c3noc(COc4ccccc4)n3)C2)cc1 (stereo unspecified)	u
80	Cn1cnnc1CC1CCCN(C(=O)c2ccsc2)C1 (stereo unspecified)	-1%

Continued, starting with the last 4 of the part before.
No.	structure	hNpr1 antagonist
77	COc1ccc(C)cc1Nc1nc(-c2ccc(OC)c(OC)c2)no1	-4%
78	CCc1nc(-c2c3n(c(=O)n(Cc4ccc(C)cc4C)c2=O)CCCC3)no1	1%
79	Cc1ccc(CC(=O)N2CCCC(c3noc(COc4ccccc4)n3)C2)cc1 (stereo unspecified)	u
80	Cn1cnnc1CC1CCCN(C(=O)c2ccsc2)C1 (stereo unspecified)	-1%
81	CCNC(=O)N[C@H]1CO[C@H]2[C@@H]1OC[C@@H]2n1cc(CN(C)Cc2ccccc2)nn1	-1%[70.6 µM]
82	COc1ccc(O[C@H]2COCCN(Cc3cccc(OC)c3)C2)cc1	-1%[70.6 µM]
83	Cc1ncc2c(c1CNC(=O)C1CCc3ccccc3C1)CCNC2 (stereo unspecified)	0%
84	CN(C)c1cccc(Oc2nnnn2[C@H]2CO[C@H]3[C@@H]2OC[C@@H]3NC(=O)c2cncnc2)c1	1%
85	O=C(Nc1cccc(C(F)(F)F)c1)c1nc2c(o1)CCN(Cc1cccc(F)c1)CC2	u
86	COCCCNC(=O)N1CCCC(c2nc(C(C)C)no2)CCNC(=O)CC1 (stereo unspecified)	1%
87	CN1C[C@@H](NC(=O)c2ccc3c(c2)OCO3)C[C@H]1c1nc(-c2ccc3ccccc3c2)no1	-19%
88	COc1ccc(-c2cnc3[nH]cc(CC(=O)N4CCN(c5ccccn5)CC4)c3c2)cc1	u

Other structures follow:
No.	structure	hNpr1 antagonist
89	O=C(CN1CCCCC1)NC1CC(=O)N(Cc2cccc3ccccc23)C1 (stereo unspecified)	-3%
90	Cc1cc(C)c(CNC(=O)c2nc(-c3cccc(O)c3)cc3c2ccn3C)c(=O)[nH]1	-3%[70.6 µM]
91	COCCn1ncc(N2CCCC(CC(=O)NCc3ccccc3OC)C2)cc1=O (stereo unspecified)	16%
92	O=S(=O)(NC[C@H]1O[C@@H](CO)[C@@H](O)[C@H]1N1CCOCC1)c1ccc(Cl)cc1	-5%
93	Cc1ccc(CNC(=O)C2CCCCC(=O)N2)cc1 (stereo unspecified)	4%
94	COc1cccc(CC(=O)N2CCC3(CC2)N=C(c2ccc(Cl)cc2)NO3)c1	u
95	CN1CCC[C@H]1c1nc(-c2ccc(F)cn2)no1	-8%[70.6 µM]
96	CCc1ccc(C(=O)N2CCC(OC3CCN(C)CC3)CC2)cc1	-20%

(further entries)
No.	structure	hNpr1 antagonist
97	Cn1cnnc1CC1CCN(C(=O)NC2CCCCC2)C1 (stereo unspecified)	2%
98	Cc1ccc(N2CC(c3noc(-c4cc(Cl)ccc4F)n3)CC2=O)cc1 (stereo unspecified)	1%
99	CS(=O)(=O)N1CCCC1c1noc(CCC(=O)N2CC=C(c3ccccc3)CC2)n1 (stereo unspecified)	-1%
100	CCOc1ncccc1C(=O)N1CCc2[nH]nc(-c3ccccc3F)c2C1	0%
101	CN(CCCc1nccn1C)C(=O)c1cn(CCC2CCCCN2)nn1 (stereo unspecified)	-4%
102	CCN(C(=O)c1cccc(F)c1F)[C@@H]1CCN(c2ncccc2C#N)C[C@H]1O	-5%

Screens (PubChem)
